ClpP mod = qHTS Assay for Activators of ClpP; Potency, µM (titrated, usually from 57.5 µM), for inactives: top-dose activity change, negative = active; ATP-dependent Clp protease proteolytic subunit (Bacillus subtilis (strain 168)), P80244; purified B. subtilis ClpP, FRET peptide cleavage, 20 min; 1.9% of 340,000 active; active = well fitted falling curve with a large enough effect; inconclusive = small, poorly fitted or top-dose-only effect; inactive = no such curve, though single readings can be large or run the other way; further: potency means the concentration at half of the fitted maximal effect; the source files actives as falling curves though it sought activators and does not explain the sign; nearly all actives have a fitted effect of over 65% in size; many hits overshoot -100%
Target sequence (P80244 whole entry, looked up): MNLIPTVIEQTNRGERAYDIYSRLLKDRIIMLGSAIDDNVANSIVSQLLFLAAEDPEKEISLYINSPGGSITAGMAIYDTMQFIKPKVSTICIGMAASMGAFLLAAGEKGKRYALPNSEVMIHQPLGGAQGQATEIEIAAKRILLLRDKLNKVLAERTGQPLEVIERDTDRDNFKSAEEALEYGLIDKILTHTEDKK
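Buffer: 100 mM Tris/HCl pH8, 100 mM KCl, 0.05% low protease BSA, 2.5% glycerol, 0.01% Tween-20. ClpP 10 microg/mL final; 20 min RT; delta FRET normalized to ADEP and DMSO controls.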
Sfp inh = qHTS Assay for Inhibitors of Bacillus subtilis Sfp phosphopantetheinyl transferase (PPTase). Biochemical Sfp PPTase activity, qHTS. 4'-phosphopantetheinyl transferase ffp (Bacillus subtilis), Q9F4F7. Potency, µM, inactives show max response, negative = inhibition, most hits filed as inhibitors. 3.5% of 310,000 active; active means well fitted inhibition curve with a large enough effect; inconclusive means small, poorly fitted or top-dose-only effect, or another doubt; inactive means no such curve, though single readings can be large or run the other way;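 further: the enzyme is Sfp with the accession as filed and its product quenches rhodamine fluorescence; potency means the concentration at half of the fitted maximal effect; 0% = enzyme reaction without inhibitor and -100% = no enzyme wells; top concentration of the series not given in the record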
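Buffer: 50 mM Hepes-Na pH 7.6, 10 mM MgCl2, 0.01% Nonidet P-40, 0.01% BSA. Enzyme 15 nM, pre-exposed to compound 15 min; substrates then added and fluorescence change tracked over 30 min.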
Menin-MLL FL inh = qHTS Assay for Inhibitors Targeting the Menin-MLL Interaction in MLL Related Leukemias: Competition With Fluorescein Labeled MLL-derived Peptide. Fluorescence polarization, fluorescein-MLL peptide displacement from menin. FP activity change, % at 61.4 µM. 290,000 tested, under 10 active. AID 1766, 2009; inconclusive = falling polarisation curve, or a change in total fluorescence; inactive = total fluorescence flat and polarisation flat or rising; no compound was filed as active; the % refers to the polarisation; negative = inhibition;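 further: % of control where 0% means no effect; inhibitors lower the polarisation; unlabelled MLL peptide was the positive control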
gsp antag = qHTS for Antagonists of gsp, the Etiologic Mutation Responsible for Fibrous Dysplasia/McCune-Albright Syndrome: qHTS. gsp-mutant cells, cAMP HTRF, 30 min; control for the full effect not named in the record. Potency, µM (doses to about 76.9 µM), inactives show at the top dose activity change, negative = inhibition, actives largely listed as inhibitors. 0.4% of 340,000 active; active = falling curve of any shape with a large fitted effect; inconclusive = falling curve, mostly with a smaller effect; inactive = flat or rising curve; cell line not stated here;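 further: intracellular cAMP measured with PDE inhibitor Ro 20-1724 present during compound exposure; potency means the concentration at half of the fitted maximal effect; on the % scale 0 is the no-effect control and ±100 the full control effect; nearly all actives have a fitted effect of over 65% in size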
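Cells, 2000/well, grown 16–24 h in DMEM 10% FBS with 0.5 mg/ml G418, then compounds plus […] (300 uM addition stock), 30 min at 37C. cAMP read by HTRF (cAMP-d2 and anti-cAMP antibody-K in lysis buffer) after 30 min RT.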
gsp ag = qHTS for Agonist of gsp, the Etiologic Mutation Responsible for Fibrous Dysplasia/McCune-Albright Syndrome: qHTS; gsp mutant cells, cAMP HTRF, 30 min; control for the full effect not named in the record; Potency, µM (top dose mostly 76.9 µM), without a hit: at the top dose activation (cAMP increase), hits mostly activators; 0.13% of 340,000 active; active = well fitted activation curve with a large enough effect; inconclusive = small, poorly fitted or top-dose-only effect, or another doubt; inactive = no such curve, though single readings can be large or run the other way; cell line not stated here;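 further: phosphodiesterase inhibitor Ro 20-1724 added with compounds to block cAMP breakdown; potency means the concentration at half of the fitted maximal effect; nearly all actives have a fitted effect of over 60% in size; about a fifth of the inactives were tested at one dose only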
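Cells in DMEM/10% FBS with G418 were pretreated with compounds in DMSO plus […] (300 uM stock) for 30 min at 37C. cAMP was measured by HTRF (cAMP-d2 plus anti-cAMP antibody-K) after 30 min at room temperature.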
TRPV1 PAM = HTS Assay for Compounds that Act as Potentiators of the Vanilloid Receptor 1. AID 540277, 2011. potentiation, % at 8.33 µM. Transient receptor potential cation channel subfamily V member 1 (Homo sapiens), Q8NER1. 0.02% of 320,000 active. TRPV1-expressing cells, Fluo-8 calcium influx, capsaicin EC20 potentiation; host cell line not named in the record; control for the full effect not named in the record; active means potentiation above 80%; inconclusive means 30% to 80%; inactive means below 30%; further: 0% is about no effect
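Fluo-8 calcium influx in TRPV1-expressing cells, kinetic read (ex 480/em 520 nm). Compound added and read 3 min for agonist activity, followed by capsaicin at EC20 final and 2 min further read for enhancement.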
TRPML1 inh = qHTS for Inhibitors of the Human Mucolipin Transient Receptor Potential 1 (TRPML1); Mucolipin-1 (Homo sapiens), Q9GZU1; TRPML1-inducible cells, Ca2+ dye fluorescence, FDSS; hits give low values; inhibition of EC80 agonist-evoked calcium signal; activity change, negative = inhibition, % (concentration not given with the values); 0.02% of 390,000 active; in the data active means activity change below about -50%; inconclusive means about -30% to -50%; inactive means above about -30%;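 further: stimulus is agonist 54-4 at its EC80 concentration; on the % scale 0 is the no-effect control and ±100 the full control effect; compound concentration not given in the record; the text of the record puts the active cut at -80%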
Target sequence (Q9GZU1 whole entry, looked up): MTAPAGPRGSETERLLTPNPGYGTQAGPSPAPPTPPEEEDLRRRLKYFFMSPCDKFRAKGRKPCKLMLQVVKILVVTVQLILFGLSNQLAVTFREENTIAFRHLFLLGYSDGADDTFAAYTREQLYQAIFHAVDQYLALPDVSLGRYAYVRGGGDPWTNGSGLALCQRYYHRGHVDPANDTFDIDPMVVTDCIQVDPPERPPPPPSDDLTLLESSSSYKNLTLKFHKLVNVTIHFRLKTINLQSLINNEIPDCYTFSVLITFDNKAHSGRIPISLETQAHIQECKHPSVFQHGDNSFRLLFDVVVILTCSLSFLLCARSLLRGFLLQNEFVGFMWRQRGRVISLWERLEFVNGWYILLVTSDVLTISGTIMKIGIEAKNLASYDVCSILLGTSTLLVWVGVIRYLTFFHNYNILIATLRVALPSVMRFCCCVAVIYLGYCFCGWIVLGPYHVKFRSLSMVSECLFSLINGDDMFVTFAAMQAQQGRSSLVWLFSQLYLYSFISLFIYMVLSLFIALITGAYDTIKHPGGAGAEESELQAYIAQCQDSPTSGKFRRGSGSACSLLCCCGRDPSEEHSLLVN
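TRPML1-DL cells, Tet-induced overnight (~16 h, 37 °C) at 1,500 cells/well, were loaded with Ca8 no-wash dye plus quencher for 45-90 min at room temperature. Compounds were pinned during FDSS kinetic reading; agonist 54-4 at EC80 (4 uM final) then added.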
* marks the source's active call; other numbers are inactive results; ? = inconclusive; . = not tested or not shown; & = joins results of further samples; [ ] = remark or other dose. An unsorted share of the library; any-hit rate near 4.9%.

mol | ClpP mod | Sfp inh | Menin-MLL FL inh | gsp antag | gsp ag | TRPV1 PAM | TRPML1 inh
CC(=O)N1CCN(S(=O)(=O)c2ccc(S(=O)(=O)NC3CCCCC3)cc2)CC1 | -0.3% | 8% | 1.3 | -19% | 22%[15.4 µM] | 3 | -2
CCN1CCN(Cc2c(O)ccc3c2O/C(=C\c2ccc(C)cc2)C3=O)CC1 | -4.4% | 9% | ? | -19% | ? | -9 | 42
Cc1ccc(CCNC(=O)CN(c2cc(C)cc(C)c2)S(=O)(=O)c2c(C)noc2C)cc1 | 0.7%&-2.9% | 16% | . | 4% | 4% | -11 | 31&9
O=C(COC(=O)c1ccccc1)Nc1cc(Cl)ccc1Oc1ccccc1 | -0.2% | ? | 0.4 | -9% | 0% | -1 | 4
C/C(=N\S(=O)(=O)c1ccc(C)cc1)N1CCN(S(=O)(=O)c2ccccc2)C1C(C)C (stereo not given) | 1.2% | 2% | -0.8 | -2% | -60%[inhibitor] | 9 | -11
CCN(CCO)C(=S)Nc1cc(C(=O)OC)ccc1C(=O)OC | -17% | 7% | 1.2 | 16% | 7% | -4 | 7
O=[N+]([O-])c1ccc(-c2cn3nc(-c4ccccc4)c(-c4ccccc4)nc3n2)cc1 | . | 10% | ? | 5% | -4%[15.4 µM] | 8 | 5
N#Cc1sc2nc(-c3cccs3)cc(-c3ccccc3)c2c1N | -5.1% | 45µM* | ? | 8% | ? | 2 | 13
Cc1ccc(S(=O)(=O)N(Cc2cccc(Cl)c2)C(=O)N2CCN(C)CC2)cc1 | 14µM* | . | . | 9% | 18% | 27 | 2
COCCCNCCCCOc1ccc(OCc2ccccc2)cc1 | -1.5% | -17% | -2.1 | -5% | -40%[inhibitor] | 7 | 0
Nc1nonc1-n1nnc(C(=O)N/N=C/c2cccc(Cl)c2)c1CN1CCCCCC1 | 0.6% | . | . | -1% | 29% | . | -3
COC(=O)COc1ccc2cc(-c3ccc(OC)cc3)c(=O)oc2c1 | 3.9% | 8% | 5.0 | -10% | 22% | -2 | -2
CCOc1ccc(C(=O)Nc2cc(Cl)ccc2-n2cncn2)cc1OC | -18% | . | . | -3% | 3% | 11 | -5
S=C(NCc1ccco1)Nc1cccc(Cl)c1 | -0.4% | -13% | 4.1 | 0% | 13% | -9 | 7
Cc1cc(C(F)(F)F)n2nc(C(=O)O)c(Cl)c2n1 | -1.6% | 14% | 3.1 | 1% | 14% | 1 | -10

Taken from above:
In gsp antag, S=C(NCc1ccco1)Nc1cccc(Cl)c1 reads 0%
In gsp ag, Cc1cc(C(F)(F)F)n2nc(C(=O)O)c(Cl)c2n1 reads 14%

(cont.)
mol | ClpP mod | Sfp inh | Menin-MLL FL inh | gsp antag | gsp ag | TRPV1 PAM | TRPML1 inh
CSCCC(NS(=O)(=O)c1ccc2c(c1)OCCO2)C(=O)N(C)Cc1ccc(C)cc1 (stereo not given) | 0.7% | 2% | . | -9% | -5%[15.4 µM] | 10 | 16
COc1ccc(NC(=O)CN2C(=O)NC(C)(Cc3ccc(OC)c(OC)c3)C2=O)cc1 (stereo not given) | 2.5% | . | . | . | 6% | . | -13
COC(=O)C1CCN(C(=O)c2cc(=O)[nH]c3ccccc23)CC1 | . | 25% | 0.9 | -1% | ? | 4 | -8
COc1cccc2c1C1(O)C2CCCCCCCCCC12OCCCO2 (stereo not given) | -2.0% | . | . | 2% | -18% | . | -9
O=[N+]([O-])c1ccc(Oc2ccc(S(=O)(=O)N3CCOCC3)cc2)cc1 | . | 10% | -0.4 | 13% | -5% | 2 | 25
O=C(CSc1nc2[nH]ncc2c(=O)[nH]1)Nc1ccc(Cl)cc1 | . | . | . | 5% | -12%[15.4 µM] | 23 | 14
COc1cc(C(=O)N2CCc3ccccc32)ccc1OCc1c(C)noc1C | . | 5% | 0.0 | -18% | 9%[15.4 µM] | 2 | 27
CCOC(=O)CN1CC23C=CC(O2)C(C(=O)Nc2ccc(C(C)=O)cc2)C3C1=O (stereo not given) | -0.4% | 12% | 4.2 | -8% | -28% | -10 | -1
Cc1cc(=O)[nH]c(SCC(=O)Nc2ccc(Br)cn2)n1 | -0.4% | 9% | 0.1 | -4% | -9% | 1 | 7
Cc1cccn2c(=O)c3cc(C(=O)NC(C)C)c(=N)n(Cc4ccncc4)c3nc12 | 5.3% | 27% | 4.3 | -8% | 5% | -4 | 7
Cn1c(=O)n(CC(N)=O)c(=O)c2c1nc(Br)n2Cc1ccccc1 | 0.1% | 10% | 0.8 | -5% | 6% | -6 | .
COc1cc(NC(=O)CN(c2cc(C)cc(C)c2)S(=O)(=O)c2c(C)noc2C)cc(OC)c1 | 2.4% | 5% | 2.7 | -14% | -11% | -3 | 17
COc1ccc2c(c1)CC(=O)NC=C2 | -4.0% | 17% | 4.2 | 2% | 2%[15.4 µM] | 9 | 1
COc1ccc(NC(=O)C2CCN(C(=O)NC3CCCCC3)CC2)c(OC)c1 | 0.3% | 17% | 0.6 | -16% | -38%[inhibitor] | 2 | 6
CC(C)OCC(O)CN1CCN(C(c2ccccc2)c2ccccc2)CC1 (stereo not given) | -0.5% | 20% | -5.9 | 12% | -34%[inhibitor] | 10 | 13
COc1ccc(CCNC(=O)CS(=O)(=O)c2cn(CC(=O)N(C(C)C)C(C)C)c3ccccc23)cc1OC | 0.8% | -5% | . | -15% | -13% | 7 | -5
Cn1cc(Cl)c(C(=O)N/N=C/c2ccc3c4c(cccc24)CC3)n1 | ? | 5% | 1.6 | -16% | 11% | 23 | 7
CC(=O)N1C[C@H]2CON(C)[C@H]2C[C@H]1c1ccc(-c2cccnc2)cc1 | 0.4% | . | . | . | -3% | . | -10
Cc1ccc2[nH]c(C)c(CCNC(=O)C3CCCCC3C(=O)OCC(F)(F)F)c2c1 (stereo not given) | 0.5% | -5% | 0.4 | -2% | 2%[15.4 µM] | -5 | 2
Cc1ccc(C)c(Cn2ncc3ccccc32)c1 | . | 2% | 8.3 | 2% | 9% | -9 | -5
CCOC(=O)Oc1ccc2c(=O)c(Oc3cccc(C)c3)coc2c1 | 16% | 8% | 2.4 | -6% | 4% | -20 | -3
COc1cccc(-c2ccc3ncnc(N(C)Cc4ccco4)c3c2)c1 | . | -21% | 0.9 | . | . | -9 | .
O=C(C1CC1)N1CCN(c2ccc(O)cc2)CC1 | 0.1% | ? | -2.4 | -7% | 18%[15.4 µM] | 8 | -2
COc1cc(OC)c(NC(=O)CSc2nc3ccncc3[nH]2)cc1Cl | -1.0% | . | . | . | . | -12 | -6
COCCn1c(C)cc(C2=NNC(=Nc3ccc(OC)cc3)SC2)c1C | -1.8% | 50µM* | 2.5 | 9% | 5% | -9 | -9
CC(=O)Nc1cccc(C(=O)/C=C/c2ccc[nH]2)c1 | -0.1% | -1% | 8.2 | -11% | 25% | -13 | 17
CCC(C)NC(=O)CNS(=O)(=O)c1ccc(C)cc1 (stereo not given) | -8.8% | 11% | -2.0 | 12% | 0% | -20 | 2
CCOC(=O)CSc1nc(C)cc(C)c1C(N)=O | 1.9% | 16% | -3.9 | 4% | 2% | 7 | -4
O=C(O)C12C[C@H]3C[C@@H](C1)CC(n1ncc(N4CCN(c5ccccc5)CC4)c(Cl)c1=O)(C3)C2 | -0.6% | 13% | -4.0 | 12% | -2% | -3 | -5
COc1ccc(CC(=O)N(C)CC(=O)Nc2ccccc2Cl)cc1S(=O)(=O)N1CCOCC1 | -1.2% | . | . | -3% | -4% | -5 | 5

4 of the entries above in order of the Sfp inh value, largest number first:
smiles	Sfp inh
Cc1ccc(CCNC(=O)CN(c2cc(C)cc(C)c2)S(=O)(=O)c2c(C)noc2C)cc1	16%
Cn1c(=O)n(CC(N)=O)c(=O)c2c1nc(Br)n2Cc1ccccc1	10%
COC(=O)COc1ccc2cc(-c3ccc(OC)cc3)c(=O)oc2c1	8%
Cc1ccc(C)c(Cn2ncc3ccccc32)c1	2%

Next structures
mol | ClpP mod | Sfp inh | Menin-MLL FL inh | gsp antag | gsp ag | TRPV1 PAM | TRPML1 inh
CCOc1ccccc1CNC(=O)c1ccccc1NC(=O)C1=CSCCO1 | -5.1% | 2% | . | -9% | 6% | 12 | 5
COC(=O)CCN(C(=O)c1ccc(Cl)c([N+](=O)[O-])c1)c1ccccn1 | 0.9% | 12% | 2.0 | -11% | 21% | 20 | 17
CC(=O)NC12CC3CC(C1)CC(C(=O)N1CCN(C(=O)c4ccco4)CC1)(C3)C2 | 0.3% | . | . | 7% | 18% | 1 | -9
CC(Sc1nnnn1-c1ccc(O)cc1)C(=O)NC1CCCCC1C (stereo not given) | -2.0% | 6% | 0.1 | -11% | ? | -5 | -7
CC1Cc2ccccc2N1Cc1cc(=O)c(OCC(=O)Nc2ccccc2)co1 (stereo not given) | -0.5% | . | . | -12% | -23% | -2 | -1
COc1ccc(C(=O)CC(=O)C(=O)Nc2ccccc2)cc1 | -1.1% | -15% | -5.5 | -19% | 6% | 5 | 5
COc1cc(/C=N/N(C)S(=O)(=O)c2ccc(C)cc2)cc([N+](=O)[O-])c1O | -2.1% | -24% | 0.1 | -23% | 5% | 5 | -2
NC12NC(=O)C3(O)C4C5CC(C6C5C3C61)C42 (stereo not given) | . | -27% | 0.4 | -1% | 14%[15.4 µM] | 14 | 15
O=C(NC(=S)Nc1ccccc1N1CCOCC1)c1ccc(-c2cc(Cl)ccc2Cl)o1 | 5.2% | 11% | 2.1 | 5% | -25% | -12 | 34
Cc1ccc(N(C(=O)Cn2nnc3ccccc32)C(C(=O)NC2CCCCC2)c2cn(C)nc2C)cc1 (stereo not given) | -0.6% | 19% | 15 | -4% | -30% | -7 | -7

Source: PubChem BioAssay
